Bead autofluor – flagged as autofluorescent in microsphere protease counterscreen; compound autofluorescence counterscreen, microsphere flow cytometry; stronger effect = higher value; fluorescence intensity (test concentration not listed); 360,000 tested, 3.1% active; AID 624483;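 active = at least 3 SD above the mean of all compounds, about 16000 in these data; inconclusive = too few beads counted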;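 note: 100 nL of 1 mM stock went into each well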
BJeLR lethal – BJeLR cell viability loss; 300,000 tested, 0.17% active; BJeLR (HRASV12) viability, CellTiter-Glo ATP luminescence, 48 h; reference of the scale not given here; inhibition, % (concentration not given with the values);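 active = replicate mean above 50%; inconclusive = above 50% but judged a plate artefact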;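 note: 50 nL library stock added to about 25 µL; numbers are from one replicate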
Sa ugtP lethal – kills S. aureus RN4220 lacking UgtP | S. aureus RN4220 ugtP deletion, OD600 growth, 16 h; some inactives read as strong as hits | growth inhibition, % (test concentration not listed) | 330,000 tested, 0.54% active | AID 1259309;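 active = z-score under -3 and OD600 up to 0.15 on both plates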;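 note: plate controls were untreated wells for no effect and antibiotic for full effect; wells of about 80 µL received 100 nL stock; the first replicate is given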
Sa RN4220 lethal – S. aureus RN4220 growth inhibition. OD600, 16 h. inhibition, % (test concentration not listed). 330,000 tested, 0.33% active. AID 1259311;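 active = z-score of -3 or lower and OD600 up to 0.18 on both plates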;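 note: plate controls were untreated cells for no effect and reference antibiotic for full effect; stock transfer was 100 nL into about 80 µL; one replicate is shown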
Mtb hypoxia rep – Mtb hypoxia fluorescent reporter inhibition | M. tuberculosis hypoxia-regulated fluorescent reporter, fluorescence | fluorescence inhibition, % (test concentration not listed) | 300,000 tested, 0.1% active | AID 1159583;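 active = 35 to 45% if threefold the growth effect, above 45% if 1.5-fold the growth effect; inactive = the rest, general growth blockers included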;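 note: wells of about 50 µL received 100 nL stock; 0% = vehicle wells and 100% = reference inhibitor wells; whole bacteria with a GFP reporter of the hypoxia response; strong numbers were not always called active; many hits fall short of the cut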
PrP UTR inh – inhibition of PrP 5' UTR reporter expression; cell-based PrP 5' UTR mRNA reporter, plate reader; 340,000 tested, 0.35% active; inhibition, % (test concentration not listed); AID 488862;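 active = every replicate at 50% or more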;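 note: 0 = median of the neutral control wells; tested in H4 reporter cells; numbers are from one replicate; inactives centre near -14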
Mtb hypoxia rep growth – recorded beside Mtb hypoxia rep, whose call it bears; growth inhibition, %; measured here: M. tuberculosis growth (absorbance);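 0% = vehicle and 100% = reference antibiotic; read after six days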
Active calls of the source: *; ? = inconclusive; . = not tested or not shown.

SMILES	Bead autofluor	BJeLR lethal	Sa ugtP lethal	Sa RN4220 lethal	Mtb hypoxia rep	Mtb hypoxia rep growth	PrP UTR inh
O=C1Cc2ccccc2Sc2cc(OCCCN3CCCCC3)ccc21	2524	5	5	-2.5	11	6	-9
Cc1ccccc1OCCC(=O)OCC(=O)Nc1cc(S(=O)(=O)N2CCOCC2)ccc1Cl	2529	1	-4	4.3	0	7	-11
CCn1nc(NS(=O)(=O)c2ccccc2)c2cc3ccccc3nc21	5583	-2	-4	2.4	11	11	-6
COc1ccccc1NC(=O)CC(NC1CCCCC1)C(=O)O (stereo unspecified)	3438	10	17	5.6	12	7	-8
O=C(Nc1cccc(Cl)c1)N(CCN1CCOCC1)Cc1ccccc1F	4157	4	-17	-0.8	5	-1	-2
Cc1sc(NC(=O)c2ccco2)c(C(c2cccnc2)N2CCN(C)CC2)c1C (stereo unspecified)	8560	-6	11	5.3	6	3	6
CC(=C/C(=O)O)/C=C/c1ccc([N+](=O)[O-])cc1	2606	.	17	11	11	4	-20
CCSc1nnc(NC(NC(C)=O)(C(F)(F)F)C(F)(F)F)s1	2498	-4	-1	5.0	9	8	-19
O=C(COC(=O)COc1cccc(Br)c1)Nc1ccc(F)cc1F	8505	.	0	-0.1	1	1	-3
CCOC(=O)c1csc(-c2ccc(OC)c(OC)c2)n1	2064	1	3	2.0	-2	-4	-13
COc1ccccc1OC(C)C(=O)N1CCc2ccccc21 (stereo unspecified)	6234	3	1	1.1	12	0	-17
COc1ccc(NC(=O)CSc2nnc(-c3ccccc3C)n2N)cc1OC	22260*	-1	2	3.5	-4	12	-10
CCC(=O)Nc1ccc(NC(=O)/C=C/c2ccc(Cl)cc2)cc1	1947	1	1	1.7	10	-1	-18
CN(CC(=O)Nc1ccccc1Sc1ccccc1)C1CCCCC1	3259	-3	11	5.1	2	3	-21
COc1ccc(NS(=O)(=O)c2ccc(N3CCCCC3)c(NC(=O)C(C)NC(N)=O)c2)cc1 (stereo unspecified)	3724	.	-2	5.0	13	8	-25
CC(C)(C)c1ccc(-n2nc(C#N)c(Cl)cc2=O)cc1	3586	56*	84	56	23	21	-76
COc1ccc(/C=C2\SC(=N)N(c3ccc(F)cc3)C2=O)cc1	3717	0	6	1.4	18	5	-9
O=C(NCc1cccs1)C1CCC(CNS(=O)(=O)c2cccs2)CC1 (stereo unspecified)	2649	5	2	-0.7	.	.	-24
CCOc1ccccc1NC(=O)CSc1nnc(-c2ccncc2)o1	?	-6	7	2.7	-2	-9	-16
CCS(=O)(=O)C(C)(CCl)C(=O)Nc1ccc(C(=O)OC)cc1 (stereo unspecified)	3877	12	7	4.6	17	5	-28
CS(=O)(=O)N1CCN(c2ccc(NC(=O)c3ccc(-c4ccc(Cl)cc4)o3)cc2)CC1	17675*	7	3	3.0	7	-2	-21
CN(Cc1nccs1)C(=O)c1cc(COc2cccc3cnccc23)on1	5382	18	5	2.1	3	5	-13
COc1ccc(-c2ccc(C3C(C#N)=C(N)Oc4n[nH]c(C)c43)o2)cc1 (stereo unspecified)	21391*	1	-15	-2.5	6	7	-38
O=C(Nc1nnc(C23CC4CC(CC(C4)C2)C3)s1)c1ccco1	4950	-3	2	3.7	.	.	-112
CCC(C)C(C(=O)N1CCN(C(=O)OC(C)(C)C)CC1)n1cc(C(CO)NC(=O)OC(C)(C)C)nn1 (stereo unspecified)	.	.	0	4.8	-3	3	.
Other entries
SMILES	Bead autofluor	BJeLR lethal	Sa ugtP lethal	Sa RN4220 lethal	Mtb hypoxia rep	Mtb hypoxia rep growth	PrP UTR inh
O=C(CCCn1c(=O)[nH]c2ccccc2c1=O)NC1CCCCCC1	4054	-6	2	5.2	2	2	-2
COc1ccc(C2=NS(=O)(=O)N(C)C(C(=O)Nc3cc(C)ccc3O)=C2)cc1OC	5124	11	-17	2.5	-2	0	-15
CCN1C(=O)[C@H]2[C@@H](c3ccc(OC)cc3)N3C(=O)CN(CC4CC4)C(=O)[C@@]3(C)[C@H]2C1=O	2770	3	.	.	.	.	-10
C/C(CCc1ccccc1)=N/NC(=O)C(=O)NC(C)c1ccccc1 (stereo unspecified)	4496	5	.	.	.	.	-9
Cc1ccc2c(c1)c(C1=c3ccccc3=NC1=O)c(O)n2C	3649	8	97*	98*	24	10	-8
O=C(Nc1ccc2nsnc2c1)C1CC1	1946	-2	3	3.3	19	9	-22
CCOC(=O)C1(CCOc2ccccc2)CCN(Cc2cc(OC)c(O)c(OC)c2)CC1	3754	10	-4	-5.2	-11	10	4
CCc1c(C)nc2c(OC)cccc2c1SCCC(=O)O	2034	-9	1	3.3	18	10	-23
CCCCCCC1CC(C)(C(=O)CNc2nncs2)OC1=O (stereo unspecified)	1868	-8	.	.	.	.	-5
COc1cccc(NC(=O)Cn2nnc(C(=O)Nc3ccccc3)c2N)c1	5727	-7	-16	-7.3	-5	-10	-5
CCN1C(=O)C2C(c3ccccc3F)NC(Cc3ccc(O)cc3)(C(=O)OC)C2C1=O (stereo unspecified)	3768	0	4	5.7	5	-1	-25
Cn1ncc(Br)c1NC(=O)Nc1ccc(Cl)cc1	3937	1	-5	3.2	4	4	-23
OC(COc1ccccc1)Cn1c2ccccc2c2ccccc21 (stereo unspecified)	2109	-9	28	-4.6	-11	-3	-27
CCCCOC(=O)C1Cc2ccccc2C(=O)O1 (stereo unspecified)	10869	6	-6	0.9	1	3	-27
O=C(CN1C2=NCCCN2c2ccccc21)c1ccc([N+](=O)[O-])cc1	2392	3	-9	-2.0	-6	6	-26
COc1ccc(CN(CC(=O)NC2CCCC2)C(=O)c2ccc(-c3ccccc3)[nH]2)cc1	4163	5	0	-6.8	16	3	-37
CN(C)C(=O)c1c([N+](=O)[O-])ncn1C	1929	-6	1	-1.0	-4	8	-1
O=C(Cn1cnc2c(cnn2-c2ccc(F)cc2)c1=O)N1CCCc2ccccc21	4340	-8	3	-3.1	6	9	-29
CCOc1c(N2CCOCC2)c(=O)c1=O	5448	9	1	3.3	8	2	-11
CCCCC(=O)Nc1ccc2c(c1)nc1n2CCSC1	4261	-23	4	-4.8	8	0	-58
CCc1ccc(C=NNC(=O)C(=O)NCCCN2CCOCC2)cc1	.	.	-7	4.1	4	-2	.
Cc1ccc(CNc2nc(Cl)c(C#N)s2)cc1	2407	8	3	2.3	-4	-9	-32
COC(=O)CC1c2cc(C(F)(F)F)ccc2S(=O)(=O)N1Cc1ccccc1OC (stereo unspecified)	.	.	4	6.8	17	10	.
Cc1cccc(-n2nc3c([n+]2[O-])CCc2nonc2-3)c1C	2024	2	1	1.3	2	10	-13
CCOC(=O)N1CCN(C(=O)CCn2c(=S)[nH]c3ccccc3c2=O)CC1	6163	-8	4	6.1	-7	7	-28

Rewritten as a markdown table: entries from further up.
| compound | Bead autofluor | BJeLR lethal | Sa ugtP lethal | Sa RN4220 lethal | Mtb hypoxia rep | Mtb hypoxia rep growth | PrP UTR inh |
| --- | --- | --- | --- | --- | --- | --- | --- |
| CCN1C(=O)[C@H]2[C@@H](c3ccc(OC)cc3)N3C(=O)CN(CC4CC4)C(=O)[C@@]3(C)[C@H]2C1=O | 2770 | 3 | . | . | . | . | -10 |
| C/C(CCc1ccccc1)=N/NC(=O)C(=O)NC(C)c1ccccc1 (stereo unspecified) | 4496 | 5 | . | . | . | . | -9 |
| Cc1ccc2c(c1)c(C1=c3ccccc3=NC1=O)c(O)n2C | 3649 | 8 | 97* | 98* | 24 | 10 | -8 |
| O=C(Nc1ccc2nsnc2c1)C1CC1 | 1946 | -2 | 3 | 3.3 | 19 | 9 | -22 |

Reformatted with values under each structure: entries from further up
Each structure is followed by: Bead autofluor | BJeLR lethal | Sa ugtP lethal | Sa RN4220 lethal | Mtb hypoxia rep | Mtb hypoxia rep growth | PrP UTR inh
- COC(=O)CC1c2cc(C(F)(F)F)ccc2S(=O)(=O)N1Cc1ccccc1OC (stereo unspecified)
→ . | . | 4 | 6.8 | 17 | 10 | .
- Cc1cccc(-n2nc3c([n+]2[O-])CCc2nonc2-3)c1C
→ 2024 | 2 | 1 | 1.3 | 2 | 10 | -13

(more compounds)
SMILES	Bead autofluor	BJeLR lethal	Sa ugtP lethal	Sa RN4220 lethal	Mtb hypoxia rep	Mtb hypoxia rep growth	PrP UTR inh
O=C(COC(=O)c1ccc([N+](=O)[O-])o1)NC1CCCc2ccccc21 (stereo unspecified)	8852	.	3	5.3	2	3	-21
CC(/C=N\N1CCN(c2ccc(Cl)cc2)CC1)=C\c1ccccc1	3001	-5	.	.	.	.	-6
COC(=O)C1=C(c2ccccc2OCc2ccccc2)CC2CCC1N2C(=O)NCc1ccc(OC)c(OC)c1 (stereo unspecified)	.	.	-7	-0.6	-5	-3	.
Cc1nnc(SCC(=O)OC2CC(C)CCC2C(C)C)[nH]c1=O (stereo unspecified)	3170	-2	2	9.3	2	2	-5
Nc1cc(C(F)(F)F)ccc1-n1cccc1	2134	4	7	7.7	17	13	-24
CCOC(=O)c1sc(NC(=O)CSc2nc(O)c(Cc3ccccc3)c(=O)[nH]2)nc1C	3193	6	6	2.6	12	1	-28
O=C(NCc1cc(C(F)(F)F)cc(C(F)(F)F)c1)C1CC(c2ccc(C(F)(F)F)cc2)=NO1 (stereo unspecified)	4246	-4	-34	-2.7	8	8	-7
Cc1ccc(C(=O)NCc2cccs2)cc1S(=O)(=O)N1CCCCC1	7993	8	12	1.9	10	7	-13
O=S(=O)(NCc1cccnc1)c1ccc2ccccc2c1	4016	7	-3	2.4	-6	2	-5
Cc1cccc(N(CC(=O)NC2CCCCC2)C(=O)CCCC(=O)Nc2ccccn2)c1C	3598	5	5	0.2	14	-1	-22
CN(C)C(C(=O)Nc1cc(Cl)cc(Cl)c1)c1ccccc1 (stereo unspecified)	3998	0	-20	-0.8	-6	2	-32
Cc1ccc2c(c1)C(=O)C(=O)N2CCCOc1ccccc1C	4346	0	8	27	6	10	-36
CCc1cccc(CC)c1NC(=O)COn1nnc2ccc(C(F)(F)F)cc21	2321	-2	-1	3.3	19	11	-30
COc1ccc(OC)c(C(=O)NC(CC(N)=O)c2ccc(NCCN3CCCCC3)c([N+](=O)[O-])c2)c1 (stereo unspecified)	3964	3	1	3.8	21	10	-5
CCS(=O)(=O)N1Cc2ccccc2CC1C(=O)OCC(=O)N(C(C)C)C(C)C (stereo unspecified)	4256	.	4	9.2	19	12	-22
Cc1nc(N2CCCCC2)c2c(-c3cccs3)csc2n1	4237	26	-6	30	3	6	-9
O=C(NCCO)c1ccccc1O	4496	5	1	-0.2	.	.	-11
Cc1ccc(-c2csc3nnc(SCC(=O)Nc4cccc(C)n4)n23)cc1	10679	-4	7	11	-2	0	.
CCn1c(=O)c([N+](=O)[O-])c(N2CCSCC2)c2ccccc21	3743	4	3	4.7	-12	-7	-7
CCN1CCN(C(=O)C(N)Cc2ccccc2)CC1 (stereo unspecified)	5114	-3	-1	2.6	10	-1	-17
COc1ccc(-c2nn3c(-c4cccc(C)c4)nnc3s2)cc1OC	16794*	-4	-18	6.4	2	7	8
CCOC(=O)N1CCN(C(=O)NC2CCCCC2)CC1	3840	7	4	5.6	6	4	-81
CC(Sc1nccn1C)C(=O)NC1(C#N)CCCCC1 (stereo unspecified)	.	.	5	7.4	14	5	.
Cc1cc(NC(=O)COC(=O)C2=NN(c3ccccc3)C(=O)CC2)c([N+](=O)[O-])cc1C	.	.	7	4.7	3	-1	.
Cc1cc(Oc2ccc(C(C)(C)C)cc2)nc(N2CCOCC2)n1	2549	1	2	-1.5	.	.	-12
Cc1ccc(NC(=O)COC(=O)c2ccccc2F)cc1S(=O)(=O)N1CCCCC1	6690	.	6	3.9	1	2	-19
O=C(CN1CCc2ccccc2C1)Nc1ccccc1F	3753	-2	9	2.6	10	3	0

Five entries from above, as a markdown table:
| Structure | Bead autofluor | BJeLR lethal | Sa ugtP lethal | Sa RN4220 lethal | Mtb hypoxia rep | Mtb hypoxia rep growth | PrP UTR inh |
| --- | --- | --- | --- | --- | --- | --- | --- |
| CC(/C=N\N1CCN(c2ccc(Cl)cc2)CC1)=C\c1ccccc1 | 3001 | -5 | . | . | . | . | -6 |
| CCc1cccc(CC)c1NC(=O)COn1nnc2ccc(C(F)(F)F)cc21 | 2321 | -2 | -1 | 3.3 | 19 | 11 | -30 |
| O=C(COC(=O)c1ccc([N+](=O)[O-])o1)NC1CCCc2ccccc21 (stereo unspecified) | 8852 | . | 3 | 5.3 | 2 | 3 | -21 |
| CN(C)C(C(=O)Nc1cc(Cl)cc(Cl)c1)c1ccccc1 (stereo unspecified) | 3998 | 0 | -20 | -0.8 | -6 | 2 | -32 |
| Cc1ccc(-c2csc3nnc(SCC(=O)Nc4cccc(C)n4)n23)cc1 | 10679 | -4 | 7 | 11 | -2 | 0 | . |

High-throughput results: PubChem, several laboratories

Outcome played no part in choosing rows; 4% or so of the library scored in one or more.
